Compound activity (PubChem BioAssay)
VDR inhibitor: blocks the human vitamin D receptor; P11473; VDR-SRC2-3 peptide fluorescence polarization, 2 h; Potency, µM, for the others: max response, negative = inhibition, usual class: inhibitors; 400,000 tested, 0.93% active; AID 504847; active means well fitted inhibition curve with a large enough effect; inconclusive means small, poorly fitted or top-dose-only effect, or another doubt; inactive means no such curve, though single readings can be large or run the other way; further: series mostly up to about 120 µM
Target sequence (P11473 whole entry, looked up): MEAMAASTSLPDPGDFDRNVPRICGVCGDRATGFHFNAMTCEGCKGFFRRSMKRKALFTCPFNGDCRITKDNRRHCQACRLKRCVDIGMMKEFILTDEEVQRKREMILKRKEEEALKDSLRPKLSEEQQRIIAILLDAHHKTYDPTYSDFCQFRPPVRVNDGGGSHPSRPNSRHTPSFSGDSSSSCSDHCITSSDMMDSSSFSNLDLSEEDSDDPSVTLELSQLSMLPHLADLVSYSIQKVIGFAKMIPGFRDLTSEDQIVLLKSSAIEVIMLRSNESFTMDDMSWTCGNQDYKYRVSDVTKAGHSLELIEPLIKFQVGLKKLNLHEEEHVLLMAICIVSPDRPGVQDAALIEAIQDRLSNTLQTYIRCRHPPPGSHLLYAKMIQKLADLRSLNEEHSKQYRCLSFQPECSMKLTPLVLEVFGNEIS
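The screen uses fluorescence polarization to detect compounds that interfere with recruitment of the SRC2-3 coactivator peptide to VDR; plates are read after 2 h at room temperature.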
Starred values were filed as active, the others as inactive; ? = inconclusive. On the % scale 0 is the no-effect control and ±100 the full control effect; potency means the concentration at half of the fitted maximal effect.

SMILES | VDR inhibitor
CCOC(=O)Cc1csc(NC(=O)NC2(C(F)(F)F)Oc3ccccc3O2)n1 | ?
CN1CC(=O)NC1=NC(=O)C12CC3CC(CC(C3)C1)C2 | 2%
CC1(C)N([O-])C2=C(c3ccccc3C2=O)[N+](=O)C1(C)C | ?
CC(=O)N1CCCc2cc(S(=O)(=O)N(C)CC(=O)Nc3cccc(Cl)c3C)ccc21 | -7%
Cc1ccc(Cl)cc1N(C)C(=O)c1cnc(N2CCOCC2)c2ccccc12 | -3%
Cc1ccccc1OCC(=O)Nc1ccccc1-c1ccccc1 | -2%
COc1ccc(Nc2cc(C)nc3ncnn23)c(OC)c1 | -14%
Nc1cc(=O)nc(SCC(=O)Nc2cccc3ccccc23)n1CCc1ccccc1 | 15%
C/C(=C\c1ccc(Br)cc1)C(=O)c1c(C)cc(C)[nH]c1=O | -17%
Cc1ccn2c(NC(=O)c3cccs3)c(-c3ccccc3)nc2c1 | -8%
CCn1cc(C(=O)NCCN(CC(C)C)CC(C)C)c(=O)c2cc(S(=O)(=O)N(C)C3CCCCC3)ccc21 | 12%
Cc1cc(C)cc(NC(=O)Cn2ncn3c(cc4ccccc43)c2=O)c1 | -11%
CNC(=O)c1cccc2nc3ccccc3nc12 | -3%
Cc1ccc(NC(=O)c2noc3c2CCc2ccccc2-3)cc1 | 3%
CC(C)(CO)NC12CC3CC(CC(C3)C1)C2 | -2%
Cc1ccc(O)c(-c2cc3ccccc3[nH]2)c1 | -21%
CC(=O)Nc1ccc(NS(=O)(=O)c2cc(C)sc2C)cc1 | 2%
CC(=O)c1ccc(OCc2cc(C(=O)N3CCCCCCC3)no2)cc1 | -13%
Cc1cccc(-c2nc3ccccc3c3nncn23)c1 | 17%
COc1ccc2c(c1)c1nnc(SCCN3CCOCC3)nc1n2C | 0%
O=C1OC2(CCCCC2)OC(=O)C1=CNc1nc2ccccc2s1 | -6%
O=C(CSc1nnnn1Cc1ccccc1)N1CCN(c2ccccc2)CC1 | 0%
Cn1c(/C(C#N)=N/O)nc2ccccc21 | 8%
COc1ccc(S(=O)(=O)n2oc(=O)cc2-c2ccccc2)cc1 | -13%
CCOC(=O)CNC(=O)Cn1cnc2sc(C)c(S(=O)(=O)N3CCC(C)CC3)c2c1=O | 3%
C=CCc1cc(C=O)cc(OCC)c1OCc1ccc(Cl)cc1 | -2%
COc1ccc(COCCN2CCN(S(=O)(=O)c3ccccc3)CCC2=O)cc1 | -1%
CC1=C(C#N)C(=O)NC(=O)/C1=C\c1ccc(-c2cc(C)c(C)cc2[N+](=O)[O-])o1 | 25µM*
CCCc1cc(=O)[nH]c(SCc2cccc(C)c2)n1 | 11%
COC(=O)c1c(C)c(OC(=O)c2c(C)cc(O)c(C=O)c2O)cc(C)c1O | -2%
COc1ccccc1CC(=O)NC1CCCCCC1 | -9%
COc1ccc(-c2[nH]ncc2-c2ccc3c(c2)OCCO3)c(O)c1 | 0%
COc1cc(CNc2ccc(N3CCCCC3)cc2)ccc1OCC(=O)NC(C)(C)C | 8%
O=c1[nH]c2cc(C(F)(F)F)ccc2n1-c1cc(C(F)(F)F)ccc1O | -2%
CCOC(=O)C1=C(O)/C(=C\c2sccc2C)N=C1C | 9%
CCOc1cc(/C=N\NC(=O)c2c(C)nc3ccccn23)ccc1O | 1%
CC(=O)Nc1ccc(N2C(C(C)=O)=NN(c3ccc(Cl)cc3)C2c2sccc2C)cc1 (stereo not drawn) | 15%
Cc1cc(C)c(S(=O)(=O)Nc2ccccc2C(=O)N2CCCC2)c(C)c1 | 5%
COc1ccc2[nH]c(O)c(N=NC(=O)c3ccc(NS(=O)(=O)c4cccs4)cc3)c2c1 | 10%
COc1ccc(N(CC(O)CN2CCOCC2)S(=O)(=O)c2ccccc2)cc1 (stereo not drawn) | 17%
O=C(Nc1cscc1S(=O)(=O)c1ccccc1)c1ccccc1Cl | 7%
CCOC(=O)N1CCN(C(=O)COC(=O)c2cc(Cl)cc(Cl)c2)CC1 | 5%
CC[C@@]12C(=O)N(c3cccc(Cl)c3)C(=O)N1[C@H](c1ccc(Br)cc1)[C@@H]1C(=O)N(C(C)(C)C)C(=O)[C@@H]12 | -14%
COc1ccc(NC(=O)c2cccc(Oc3ccc([N+](=O)[O-])cc3Cl)c2)cc1 | 14%
O=C(NNC(=O)c1cccc(Cl)c1)NNC(=O)c1cccc(Cl)c1 | 8%
COc1ccccc1N(CC(=O)NCc1ccccn1)S(C)(=O)=O | 5%
Cc1n[nH]c(=O)c2c(NC(=O)CSc3nnc(C4CC4)n3C)oc(C)c12 | -19%
COc1ccc(CCNC(=O)Cc2nn(C)c(=O)c3ccccc23)cc1OC | -11%
CCCc1nn(C)c(C(=O)Nc2ccc3ccccc3c2)c1Cl | -4%
Cc1ccc2nc(NC(=O)c3ccc(NS(=O)(=O)c4cccs4)cc3)sc2c1 | -1%
CCCOc1ccc2oc(=O)c3c(c2c1)CCCN3C(=O)CN(C)Cc1ccccc1 | -9%
Cc1cc(-c2ccc(S(=O)(=O)Nc3ccc(Br)c(C)c3)s2)on1 | 5%
CN1CCN(NC(=O)c2ccc(COc3ccccc3Br)o2)CC1 | -9%
Cc1nnc(SCC(=O)NC(C)c2ccccc2)[nH]c1=O (stereo not drawn) | 11%
O=C(CNC(=O)c1cccc(N2C(=O)c3ccccc3C2=O)c1)Nc1ccc(F)c(F)c1 | 25%
C[C@@]12CCC3[C@@](CC[C@@H]4[C@](C)(C(=O)O)CCC[C@@]34C)(C[C@H]1O)C2 (stereo partly drawn) | -3%
CCn1cc(CNC(=O)c2cc(COc3ccc(F)cc3Cl)on2)cn1 | -1%
Cc1nc(SCC(=O)NC(C)(C)C)c2c(-c3cccs3)csc2n1 | -7%
O=C(NCCS(=O)(=O)N1CCN(c2cccc(Cl)c2)CC1)C1CC1 | -3%
CC(=O)CCS(=O)(=O)c1ccc(Oc2ccc(S(=O)(=O)CCC(C)=O)cc2)cc1 | 0%

Other records
SMILES | VDR inhibitor
CC(=O)c1ccc(N2CCN(C(=O)c3cc(-c4ccncc4)nc4ccc(Br)cc34)CC2)cc1 | -6%
Cc1[nH]c(=O)c(C#N)c(C)c1CCC(=O)NCc1ccc(Cl)cc1 | -2%
CC(C)C(=O)Nc1ccc(C(=O)NNC(=O)NC2CCCCC2)cc1 | -1%
O=C(NCCN1CCCCC1)c1ccc(Cn2c(SCc3cccc(F)c3)nc3cccnc32)cc1 | 7%
O=C(Nc1ccc2c(c1)OCO2)Nc1ccccc1F | 14%
CN(c1ccccc1)c1nc(N)c([N+](=O)[O-])c(NCc2ccco2)n1 | 6%
COc1cccc(OCc2cc(C(=O)NCc3cnc4ccccn34)no2)c1 | -14%
O=C(CSc1nc2ccccc2[nH]1)c1cccs1 | 3%
Cc1cccn2c(=O)cc(COc3cccc(NC(=O)COc4ccc(F)cc4)c3)nc12 | -2%
Cn1c(=O)n(CCc2ccccc2)c(=O)c2c1nc1n2CCN1c1ccc(Cl)cc1 | 10%
Cc1noc(C)c1S(=O)(=O)N1CCCC(C(=O)c2cccc(OC(C)C)c2)C1 (stereo not drawn) | -5%
CC1(c2ccc3ccccc3c2)NC(=O)N(CC(=O)N2CCC(C(N)=O)CC2)C1=O (stereo not drawn) | 3%
CCC(=O)N1c2ccccc2CC1C(=O)NCc1ccc(OC(C)C)cc1 (stereo not drawn) | 12%
CCOC(=O)Cn1cnc2c(cnn2-c2ccccc2)c1=O | 5%
Cc1nc(SCC(=O)NC2CCS(=O)(=O)C2)c2c3c(sc2n1)CCCC3 (stereo not drawn) | -18%
CCOc1cc(C)c(C(C)C)cc1S(=O)(=O)NCc1ccccn1 | 2%
CCOC(=O)Nc1ccc(OC)cc1S(=O)(=O)N1CCCCC1 | 10%
CC(C)CC(=O)N(Cc1ccc(F)cc1)C1CCS(=O)(=O)C1 (stereo not drawn) | 6%
CCC(C)NC(=O)/C=C1\Sc2ccccc2NC1=O (stereo not drawn) | -12%
CCn1c(SCC(=O)Nc2ccc(C(=O)OC)cc2)nnc1-c1cccs1 | 15%
COc1ccc(CCNC(=O)CCc2ccc(S(=O)(=O)NCC(C)C)cc2)cc1OC | 10%
Cc1ccc(-c2nn(-c3ccc(F)cc3)c3c2cnc2cc(F)c(F)cc23)cc1 | -1%
CC1(C)Cc2c(sc(/N=C/N3CCCCCC3)c2C#N)C(C)(C)N1 | -3%
Cc1cc(-c2ccc(C(C)C)c(S(=O)(=O)N3CCC(C)CC3)c2)on1 | -7%
O=C(O)c1ccc(CCN2CCN(CC=Cc3ccc(Cl)cc3)CC2)cc1 | 1%
Cc1[nH]c2ccccc2c1C(c1ccncc1)N1CCN(c2ccc(F)cc2)CC1 (stereo not drawn) | -17%
COc1ccc(Br)cc1CNc1ccc2[nH]c(=O)[nH]c2c1 | 16%
COc1ccc(S(=O)(=O)N2CCN(CCOc3ccc(Br)cc3)CC2)cc1OC | 0%
O=C(NCc1ccco1)c1cc([N+](=O)[O-])ccc1N1CCOCC1 | -1%
O=C(Nc1ccncc1)c1ccc(N2CCCC2=O)cc1 | -12%
O=C(NCC1CCCO1)C(C(=O)c1ccccc1)n1cc(Cl)ccc1=O (stereo not drawn) | -9%
O=C(NCCN1CCOCC1)c1cc(-c2ccc(Cl)s2)nc2ccccc12 | -16%
COc1cc2cc(CN(CCN3CCOCC3)C(=O)Nc3ccc(F)cc3)c(=O)[nH]c2cc1OC | -12%
O=C1NC(=O)C(c2ccccc2)(c2ccc(Cl)cc2Cl)N1 (stereo not drawn) | -20%
CC(C)CN1CCN(CCCc2ccccc2)C(CCO)C1 (stereo not drawn) | 5%
CC(C)c1cnc2c(c1SCc1cccc(C(F)(F)F)c1)c(=O)n(C)c(=O)n2C | -4%
O=C(/C=C/c1ccccc1[N+](=O)[O-])c1ccc(F)cc1 | ?
Fc1ccc(NC(=S)N2CCN(c3cccc(C(F)(F)F)c3)CC2)cc1 | -23%
CC(C)c1ccc(OCC(=O)NCCS(=O)(=O)N2CCN(c3ccc(F)cc3)CC2)cc1 | 14%
COc1ccccc1NC(=O)N(Cc1ccc2c(c1)OCO2)Cc1nc2ccccc2c(=O)[nH]1 | -1%
CC(C)c1ccc(N2CC(C(=O)Nc3nccs3)CC2=O)cc1 (stereo not drawn) | 13%
Cc1ccc(N=Cc2c(O)c3ccccc3n(C)c2=O)cc1 | 0%
COc1cccc(Nc2nc3cc(OC)ccc3cc2C#N)c1 | 21%
C/C(=N\NC(N)=S)C1(C)CC2(CC(C)(C)OC2=O)C(=O)O1 (stereo not drawn) | -6%
CC(=O)N1CCN(S(=O)(=O)c2ccc(C)cc2)C1c1ccc(N(C)C)cc1 (stereo not drawn) | -4%
Cn1c(N2CCN(C(=O)Nc3ccc(C(F)(F)F)cc3)CC2)nc2ccccc21 | ?
COc1ccccc1N(CC(=O)N1CCCC1)S(=O)(=O)c1cc([N+](=O)[O-])ccc1Cl | 3%
CCN(CC)CCN(C(=O)Cn1nnc(-c2ccc(C)o2)n1)C(C(=O)NC(C)(C)C)c1cccs1 (stereo not drawn) | -3%
COCCCNC(=O)CSc1nc2ccccc2c(=O)n1Cc1ccc2c(c1)OCO2 | -5%
CCO[C@H]1OC(C(N)=O)=C[C@@H](c2coc3ccccc3c2=O)[C@@H]1CCCO | -19%
O=C(CCCn1c(=O)c2ccccc2n(CC(=O)NCc2ccco2)c1=O)NCc1ccco1 | 1%
O=C(CN(CC1CCCO1)C(=O)CNS(=O)(=O)c1ccccc1)NCCc1ccccc1 (stereo not drawn) | -11%
O=C(O)C1CC(=O)n2c(nc3ccccc32)S1 (stereo not drawn) | 2%
O=C(Cn1nnc(-c2ccc(F)cc2)n1)N1CCCCC1 | 13%
O=C(NC(Cc1ccc(O)cc1)C(=O)O)c1ccc2c(c1)OCO2 (stereo not drawn) | 14%
Cc1ccccc1CS(=O)(=O)CCC(=O)NCCCN1CCN(c2ccccc2F)CC1 | 12%
Cc1ccccc1-n1c(SCC(=O)NCc2cccs2)nc2ccccc2c1=O | -21%
COc1ccc2oc(=O)c(-c3cn4c(n3)sc3cc(OC)ccc34)cc2c1 | 15%
O=C1N(Cc2cccc(C(F)(F)F)c2)c2ccccc2S(=O)(=O)N1c1cccc(Cl)c1 | 3%
Cc1ccc2oc(=O)n(CCNC(=O)Nc3ccccc3C)c2c1 | 13%
CCOC(=O)Cc1csc(NC(=O)c2cc(-c3ccncc3)nc3ccccc23)n1 | 2%

Of the compounds above, these have a thiophene ring, fused or not.
SMILES | VDR inhibitor
Cc1ccn2c(NC(=O)c3cccs3)c(-c3ccccc3)nc2c1 | -8%
CC(=O)Nc1ccc(NS(=O)(=O)c2cc(C)sc2C)cc1 | 2%
CCOC(=O)CNC(=O)Cn1cnc2sc(C)c(S(=O)(=O)N3CCC(C)CC3)c2c1=O | 3%
CCOC(=O)C1=C(O)/C(=C\c2sccc2C)N=C1C | 9%
CC(=O)Nc1ccc(N2C(C(C)=O)=NN(c3ccc(Cl)cc3)C2c2sccc2C)cc1 (stereo not drawn) | 15%
COc1ccc2[nH]c(O)c(N=NC(=O)c3ccc(NS(=O)(=O)c4cccs4)cc3)c2c1 | 10%
O=C(Nc1cscc1S(=O)(=O)c1ccccc1)c1ccccc1Cl | 7%
Cc1ccc2nc(NC(=O)c3ccc(NS(=O)(=O)c4cccs4)cc3)sc2c1 | -1%
Cc1cc(-c2ccc(S(=O)(=O)Nc3ccc(Br)c(C)c3)s2)on1 | 5%
Cc1nc(SCC(=O)NC(C)(C)C)c2c(-c3cccs3)csc2n1 | -7%
O=C(CSc1nc2ccccc2[nH]1)c1cccs1 | 3%
Cc1nc(SCC(=O)NC2CCS(=O)(=O)C2)c2c3c(sc2n1)CCCC3 (stereo not drawn) | -18%
CCn1c(SCC(=O)Nc2ccc(C(=O)OC)cc2)nnc1-c1cccs1 | 15%
CC1(C)Cc2c(sc(/N=C/N3CCCCCC3)c2C#N)C(C)(C)N1 | -3%
O=C(NCCN1CCOCC1)c1cc(-c2ccc(Cl)s2)nc2ccccc12 | -16%
CCN(CC)CCN(C(=O)Cn1nnc(-c2ccc(C)o2)n1)C(C(=O)NC(C)(C)C)c1cccs1 (stereo not drawn) | -3%
Cc1ccccc1-n1c(SCC(=O)NCc2cccs2)nc2ccccc2c1=O | -21%

Not all compounds are listed; count on the stated rates, not on these rows.
